# LANA-H2B inh: blocks KSHV LANA binding to histone H2A/H2B; cell-free LANA-H2A/H2B peptide, fluorescence polarization; inhibition, % (concentration not given with the values); 320,000 compounds, 0.6% hits; Q9QR71; in the data active = inhibition mostly above about 10%, no sharp cut-off; inactive = mostly below about 6.7%;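 note: stock transfer was 7.5 nL into about 10 µL; 0% = median of vehicle wells and 100% = median of positive control wells; one replicate is shown; the record names a cut of 25% in any replicate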
# Beta2AR agonist: agonists of human beta-2 adrenergic receptor inducing internalization; P07550; response, % (no concentration beside the values); 340,000 compounds, 0.43% hits; AID 504454; Am2.2-beta2AR cells, FAP receptor internalization, flow cytometry; reference of the scale not given here;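 active = response above a set limit, near 3 SD of response in nonfluorescent compounds, cut at about 42% in these data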;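 note: stock transfer was 100 nL into about 11 µL; a reference agonist was the positive control; negative values mostly stem from fluorescent compounds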
# Target sequence (P07550 whole entry, looked up): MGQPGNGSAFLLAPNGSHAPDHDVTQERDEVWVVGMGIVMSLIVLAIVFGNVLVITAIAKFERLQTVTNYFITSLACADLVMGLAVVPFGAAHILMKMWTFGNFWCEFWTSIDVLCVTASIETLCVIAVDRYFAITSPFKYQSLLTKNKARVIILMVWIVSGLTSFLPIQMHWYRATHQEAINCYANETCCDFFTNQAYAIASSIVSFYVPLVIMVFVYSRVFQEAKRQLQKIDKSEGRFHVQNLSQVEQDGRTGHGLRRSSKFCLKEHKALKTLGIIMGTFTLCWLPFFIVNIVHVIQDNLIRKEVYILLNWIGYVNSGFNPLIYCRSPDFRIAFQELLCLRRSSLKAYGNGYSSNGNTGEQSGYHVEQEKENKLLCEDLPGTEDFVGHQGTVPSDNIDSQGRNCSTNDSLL
# Beta apoptosis: beta cell apoptosis inhibition | 300,000 compounds, 0.8% hits | INS-1E cytokine-induced death, ATP luminescence, 48 h; percent of positive-control rescue, neutral wells zero | protection from apoptosis, % (concentration not given with the values);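 active = all replicates at 75% or more, or half of them and the mean; inconclusive = half reach 75% but not the mean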;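 note: 0% = cytokine-treated negative control wells and 100% = positive control rescue; higher means more ATP so stronger rescue from cytokine killing; wells of about 40 µL received 100 nL stock; the first replicate is given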
# A1 inh: inhibitors of the anti-apoptotic protein A1, read as caspase activation | MEF A1-2A-BIM cells, Caspase-Glo 3/7 luminescence, 3 h; percent of clofoctol response, vehicle zero | caspase activation, % (test concentration not listed) | 330,000 compounds, 0.066% hits | AID 2462;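 active = over half of replicate activation scores above 10%, or exactly half above 10 with the replicate mean above 10; inconclusive = replicate mean below 10 yet half the replicates above 10; inactive = over half of replicates below 10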;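 note: wells of about 30 µL received 50 nL stock; many hits fall short of the cut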
# UCH37 inh: blocks the human deubiquitinase UCH37; purified proteasome/UCH37, Ub-AMC cleavage fluorescence; Q9Y5K5; inhibition, % (test concentration not listed); 330,000 compounds, 0.33% hits; AID 588478;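 active = mean of two replicates above 20%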;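 note: 0% = compound-free wells with enzyme and 100% = wells lacking proteasome; stock transfer was 100 nL into about 20 µL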
# Target sequence (Q9Y5K5 whole entry, looked up): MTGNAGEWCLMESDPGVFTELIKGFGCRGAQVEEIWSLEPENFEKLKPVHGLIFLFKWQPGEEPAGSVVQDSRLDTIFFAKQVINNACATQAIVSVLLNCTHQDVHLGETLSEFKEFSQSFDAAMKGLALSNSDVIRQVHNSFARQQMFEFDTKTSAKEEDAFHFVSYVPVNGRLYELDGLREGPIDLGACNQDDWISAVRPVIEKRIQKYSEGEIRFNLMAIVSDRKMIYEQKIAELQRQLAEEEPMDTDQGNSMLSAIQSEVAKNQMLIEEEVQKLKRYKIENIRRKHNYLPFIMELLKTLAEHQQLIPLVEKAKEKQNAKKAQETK
#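 System: Proteasome-associated human UCH37 deubiquitinase; Input: 0.15 nM proteasome in added enzyme buffer; Also added: Ub-AMC substrate from 1 µM stock; Incubation: 30 min compound-proteasome preincubation then 25 min substrate reaction, room temperature; Detection: fluorescence, ex 355 nm, em 460 nm; Read-out: % inhibition of Ub-AMC cleavage fluorescence; Benchmarks: no-proteasome and no-compound wells.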
# Calb FLC: C. albicans growth modulation with fluconazole | C. albicans CaCi-2 (fluconazole-resistant clinical isolate) + fluconazole, Alamar Blue growth, 48 h | AID 1979 | 300,000 compounds, 0.57% hits | growth inhibition, % (no concentration beside the values);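 active = most replicates above 75%; inconclusive = exactly half above 75%; inactive = most below 75%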;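 note: all wells also contain fluconazole at 8 µg/ml as a sub-toxic cotreatment; 0% = median of DMSO wells and 100% = median of geldanamycin control wells; wells of about 8 µL received 7.5 nL stock; the first replicate is given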
# RanGTP-Imp inh: disruptors of Ran-importin-beta complex formation – biochemical, FRET, CFP-Ran, YFP-importin-beta, homogeneous, primary screen; 300,000 compounds, 1.1% hits; cell-free CFP-Ran/YFP-importin-beta FRET ratio; inhibition, % (concentration not given with the values);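 active = most replicates above 15%; inconclusive = exactly half above 15%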;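 note: 0% = DMSO wells and 100% = Ran loaded with GDP instead of GTP; wells of about 40 µL received 100 nL stock; the first replicate is given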
# T cruzi inh: T. cruzi replication inhibition | T. cruzi beta-gal in NIH3T3, luminescence, 90 h | 300,000 compounds, 1.4% hits | inhibition, % (no concentration beside the values);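 active = mean inhibition across valid replicates above about 55%, limit read from the data; inconclusive = mean below that limit but half or more replicates reach it; inactive = mean below it, under half of replicates reach it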;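 note: signal also drops with host cell toxicity which is not excluded here; 0% = plate median of DMSO wells and 100% = zero luminescence signal; higher percent means less beta-gal luminescence so fewer parasites; stock transfer was 50 nL into about 50 µL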
# * marks the source's active call; other numbers are inactive results; ? = inconclusive; / = not tested or not shown.
SMILES,LANA-H2B inh,Beta2AR agonist,Beta apoptosis,A1 inh,UCH37 inh,Calb FLC,RanGTP-Imp inh,T cruzi inh
O=C(OCC(=O)N1CCCC1=O)c1cccc(S(=O)(=O)N2CCOCC2)c1,-0.8,1,-3,0.4,2.6,-5,4.9,-1
CCN(C(=O)c1cnc(OC)cc1C(F)(F)F)c1ccc(Cl)cc1,-3.1,11,10,-0.6,7.3,6,1.2,-27
O=C(OC(C(=O)NCc1ccco1)C(OC(=O)c1ccccc1)C(=O)NCc1ccco1)c1ccccc1 (stereo not given),-6.4,-36,-6,0.2,2.7,54,-4.8,0
Cc1ccc(NC(=O)COC(=O)CCC(=O)c2ccc(Cl)cc2)cc1S(=O)(=O)N(C)C,1.6,-6,-5,0.4,-1.0,-6,6.5,-9
CCCCc1ccc(NC(=O)COc2ccc(C(=O)Nc3ccccc3OC)cc2)cc1,5.7,/,-2,0.2,-0.2,1,0.4,1
O=S1(=O)N=C(Nc2ccc(N3CCOCC3)c(Cl)c2)c2ccccc21,5.3,0,1,-0.6,0.8,-3,3.5,-6
COCOc1cc(O)c2c(=O)c(OCOC)c(-c3ccc(OCOC)c(OCOC)c3)oc2c1,-3.3,-11,10,0.0,-0.3,0,-0.8,5
Nn1nnc2ccccc21,-1.7,-5,3,0.0,1.3,-1,7.2,2
Cc1ccc(C)c(NC(=O)COC(=O)CCc2ccc(S(=O)(=O)N3CCOCC3)cc2)c1,2.3,3,0,1.1,0.7,-10,1.3,-30
CC(NC(=O)Nc1ccc(F)cc1F)c1ccc2c(c1)OCO2 (stereo not given),-1.9,0,0,0.7,-0.3,-1,-0.1,-9
O=C(CCCCCNC(=O)c1ccccc1)C[N+](=O)[O-],-2.3,3,1,-0.3,7.8,-11,2.2,0
COc1ccc(-c2nc(-c3ccncc3)no2)cc1,3.1,3,0,-9.0,3.7,-12,3.6,-20
CC(OC(=O)c1ccccn1)C(=O)Nc1ccc(C(F)(F)F)cc1 (stereo not given),-3.1,-4,5,0.1,-0.2,/,/,/
Cc1cc(C)nc(N/C(=N\S(=O)(=O)Cc2ccccc2)Nc2ccc(F)c(Cl)c2)n1,3.2,3,-4,-0.1,2.0,-3,-3.4,25
Cc1ccccc1NC(=O)N1CCc2ccccc2C1,-1.8,-7,-4,0.1,2.4,-3,-5.5,-6
N/C(=N\OC(=O)Cc1ccccc1[N+](=O)[O-])c1ccncc1,-0.4,-2,-5,1.0,/,5,1.3,1
COc1ccc(C(=O)CN(CCC(=O)O)S(=O)(=O)c2ccc([N+](=O)[O-])cc2)cc1,2.7,-2,-7,0.9,5.8,/,/,/
O=C(O)/C=C/c1cccc2c1OCCO2,-1.8,2,-1,0.0,3.0,1,3.5,-4
O=C(O)c1ccc(COc2ccc(/C=N/NC(=O)c3cccs3)cc2)cc1,-1.7,-2,4,-0.9,/,-5,7.2,-20
COc1ccc(Cl)cc1NC(=O)c1ccco1,-4.3,4,-1,-0.4,1.5,-7,-1.8,-15
O=C(c1ccc(S(=O)(=O)N2CCCCC2)cc1)N1CCN(CCN2C(=O)c3cccc4cccc(c34)C2=O)CC1,2.5,1,13,-0.3,-0.5,4,-3.0,16
CC(=O)c1ccccc1NS(C)(=O)=O,-4.0,1,-7,0.7,1.2,14,4.4,-5
Nc1c(C(=O)OCC(=O)NCc2ccccc2)[nH]c(=O)[nH]c1=O,-5.0,-10,-6,-0.2,-14,-6,1.1,-2
C#CCNC(=O)C1=C[C@@H](c2ccc(C(F)(F)F)cc2)[C@H](CCCO)[C@@H](OCC)O1,-2.2,-6,-10,-0.3,-2.0,-4,-5.2,4
COc1ccccc1-c1nnc(SCC(=O)NC2CC2)n1C,9.9,-8,-1,-0.2,-1.9,/,/,/
Cc1ccc(C(=O)NNC(=S)NCC2CCCO2)cc1[N+](=O)[O-] (stereo not given),4.8,3,-9,1.2,4.8,7,-2.4,-22
CN1C(=O)[C@@H]2C[C@@]3([C@@]45C[C@H]6C(=O)N(C)[C@@H](Cc7ccccc7)C(=O)N6[C@@H]4Nc4ccccc45)c4ccccc4N[C@H]3N2C(=O)[C@@H]1Cc1ccccc1,-6.8,4,0,0.3,-1.8,3,5.5,15
Cc1cc(-c2nnc(CCC(=O)NC(C)c3ccc(F)cc3)o2)no1 (stereo not given),-2.4,-2,-6,0.1,0.8,-9,-2.1,-4
Cc1cccc(C)c1OCC(=O)Nc1cc(Cl)ccc1-n1cncn1,1.9,-5,-3,-0.2,2.3,5,/,2
CC1(c2nnc(-c3cccc(Cl)c3)o2)CC(c2ccccc2Br)=NO1 (stereo not given),2.1,-3,-4,0.6,0.9,-2,-3.8,-2
CC(=O)N1CCN(S(=O)(=O)c2ccc3c(c2)CC(=O)N3)CC1,-10.0,-5,3,0.9,5.6,/,/,/
NNC(=O)c1sc2nc(N3CCOCC3)c3c(c2c1N)CCCC3,-0.5,9,/,0.8,-108,-1,-0.5,30
COc1cccc(C(=O)N/N=C(/CCC(=O)O)c2ccccc2)c1,-3.1,2,-2,-0.8,/,-8,0.3,-17
O=[N+]([O-])c1ccc(NCCCN2CCOCC2)c([N+](=O)[O-])c1,-0.6,-10,1,0.3,13,0,1.7,0
Cc1ccc(C(=O)N2CCC(C(N)=O)CC2)cc1C,-0.3,4,-2,1.7,3.7,-13,1.7,-18
O=C(COC(=O)CCc1c[nH]c2ccccc12)NCc1ccc(Cl)cc1,-0.9,6,-10,-0.6,0.8,-13,3.6,-2
CC(NC(=O)c1ccccc1O)c1ccccc1 (stereo not given),-1.8,13,-7,0.1,-37,-1,0.1,-3
Cc1cc(NC(=O)CSCC(=O)NC(C)c2ccccc2)no1 (stereo not given),5.1,-6,-4,0.3,0.7,/,/,/
CCc1ccccc1NC(=O)CN(C)S(=O)(=O)c1ccc(-c2ccc(=O)[nH]n2)s1,-1.3,3,10,0.4,2.0,-26,-2.4,-5
CN(C)c1ccc(CN(C(=O)COc2ccc(F)cc2)C2CCS(=O)(=O)C2)cc1 (stereo not given),-1.3,0,1,1.2,-1.2,2,2.0,-4
CCN(CC)CCNC(=O)Cn1ncc2ccccc2c1=O,2.2,4,2,-1.1,1.5,-1,-1.4,-3
CC1=C(C(=O)N(C)C)C(c2ccc(C)s2)NC(=S)N1 (stereo not given),-10,8,0,-0.2,-0.6,13,-1.4,9
CCOC(=O)C(=O)Nc1ccccc1C(=O)NC(C)C,4.8,0,-2,0.8,0.3,-25,?,-31
O=C(/C=C/c1ccc(O)c(O)c1)O[C@H](Cc1ccc(O)c(O)c1)C(=O)O,/,/,/,/,3.0,-4,12,-15
CCCCn1c(-c2cccnc2)n[nH]c1=S,3.6,-2,/,1.2,4.3,3,-0.7,-3
Cc1c(C(=O)N(C)C2CCCCC2)sc2ncnc(N3CCN(c4ccccc4)CC3)c12,0.1,8,5,-0.2,4.8,-10,0.3,-1
CCOC(=O)N1CCC(NC(=O)CCS(=O)(=O)c2ccc3c(c2)CCN3C(C)=O)CC1,0.3,2,3,-0.7,1.0,-8,1.2,-7
Cc1cccc(C)c1NC(=O)C1(N(Cc2ccco2)C(=O)c2ccccn2)CCCC1,-1.0,13,-3,0.1,4.6,6,6.5,-1
CCOC(=O)N1CCN(C(=O)C2CCN(C(=O)c3cc(OC)cc(OC)c3)CC2)CC1,4.2,-3,-9,2.6,0.8,-2,2.2,-10
O=C(COC(=O)CNC(=O)C1CCCCC1)Nc1ccc(Cl)cn1,0.4,-7,-3,-0.7,-1.2,2,-0.1,-17
# Other compounds follow:
SMILES,LANA-H2B inh,Beta2AR agonist,Beta apoptosis,A1 inh,UCH37 inh,Calb FLC,RanGTP-Imp inh,T cruzi inh
CC1(C)CC(NNCCC#N)=CC(=[N+]2CCCC2)C1,-3.6,-2,-3,-0.4,-0.1,-13,19*,30
CCOC(=O)C1CCN(CC(=O)NC(=O)NC2CCCCC2)CC1,-0.1,1,0,0.1,2.8,-2,-1.7,1
COC(=O)c1cc(OC)c(OC)cc1NC(=O)c1ccccc1C,0.0,0,5,-0.3,0.8,24,1.6,2
Cc1ccc(C)c(CSc2nnc(-c3cccnc3)o2)c1,-1.1,-4,-6,0.7,2.6,16,0.1,-17
CCN(CC(=O)Nc1ccc2c(c1)OCCO2)C(=O)c1ccc([N+](=O)[O-])s1,3.5,2,-2,0.5,5.4,/,/,/
CC(=O)N1c2ccc(S(=O)(=O)NCC3CCC(C(=O)N(C)Cc4ccccc4)CC3)cc2CC1C (stereo not given),4.5,-7,10,2.0,4.7,36,-1.2,12
CCOC(=O)C1CCN(c2c(N(C)Cc3ccco3)c(=O)c2=O)CC1,0.9,-1,2,-0.1,12,-4,?,-10
Cc1cc(C)n2cc(CSc3ccccn3)nc2n1,4.2,-2,-3,0.5,-15,-5,-0.6,9
O=C(COC(=O)c1ccccc1Nc1ccccc1)NCc1ccccc1Cl,-3.4,0,1,-0.2,-13,-19,0.1,-16
Cn1c(=O)c2c(ncn2CC(=O)OCC(=O)Nc2sccc2C(N)=O)n(C)c1=O,2.9,-6,-7,-0.7,-0.7,-5,0.1,-1
Cc1cccc(N2C(=O)N3[C@H](c4ccc(Br)cc4)[C@@H]4C(=O)N(C(C)(C)C)C(=O)[C@@H]4[C@]3(Cc3ccc(Cl)cc3)C2=O)c1,-7.1,4,3,-0.1,-1.1,3,?,44
Cc1ccc(N(CC(N)=O)C2SC(=O)N(Cc3cccc(C(=O)O)c3)C2=O)cc1 (stereo not given),0.1,-7,0,0.2,0.0,5,1.2,-13
O=C(CSc1nnnn1C1CCCC1)Nc1ccc2c(c1)OCCO2,2.3,0,/,0.5,0.6,-4,2.1,3
COC(=O)C1CCN(C(=O)N2CCOCC2)CC1,-1.3,-1,-5,0.7,2.8,-11,1.9,-18
Cc1ccc2c(c1)C1OCCC1C1N2C(=O)C2C(C(=O)O)C3C=CC21O3 (stereo not given),7.0,-5,-6,-0.3,-2.9,-5,5.2,-13
COc1ccccc1-c1nc2ccc(Cl)cc2c(=O)n1O,1.4,0,-1,0.7,-4.5,-4,-0.6,-2
CS(=O)(=O)N1c2ccccc2[C@@]2(Br)C[C@H]3C(=O)N[C@@H](Cc4ccccc4)C(=O)N3[C@@H]12,-0.5,-4,-6,-1.0,-2.7,7,-2.8,1
CCN1CCN(C(=S)c2ccc(OC)cc2)CC1,5.1,2,-13,1.0,2.1,-13,-0.7,12
CCOC(=O)c1cc(-c2csc(-c3ccc(C(F)(F)F)cc3)n2)on1,-2.5,-12,-7,0.3,2.5,6,1.7,-11
C[C@H](CO)N1C[C@H](C)[C@@H](CN(C)Cc2ccc(Oc3ccccc3)cc2)Oc2c(NC(=O)C3CC3)cccc2C1=O,-0.7,28,6,1.2,5.9,/,/,/
Cc1csc(NC(=O)c2ccc(S(=O)(=O)N(C)c3ccccc3)cc2)n1,0.1,10,-4,0.1,-0.4,0,2.5,23
CN(C)C(=O)c1cn(-c2ccccc2)c(=O)c2ccccc12,2.0,8,-5,0.0,-3.0,4,-2.2,-7
Nc1cc(Oc2cccnc2)cc([N+](=O)[O-])c1,/,-14,/,/,1.9,-6,5.0,-15
CCCCNC(=O)NS(=O)(=O)c1cnccc1Sc1ccc(Cl)cc1,-0.1,-4,-7,0.1,3.0,-15,2.0,-15
